# NPYLR7 agonist – mosquito NPYLR7 agonism. HEK293T NPYLR7/Galpha15, GCaMP6s calcium fluorescence. actives 0.15% (n = 270,000). AID 1259423. activation, % at 10 µM; in the data active = activation above about 40%;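 also: 0% = vehicle and 100% = reference agonist at the receptor; some compounds past the cut are filed as inactive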
# NPYLR7 agonist max-min – recorded beside NPYLR7 agonist, whose call it bears; activation, %; measured here: Max-Min RFU normalised activation; some inactives read as strong as hits;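 span of the calcium signal over five minutes; 0% = vehicle and 100% = native peptide agonist; compound fluorescence can raise it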
# * = called active by the depositor; & = joins results of further samples.
entry	SMILES	NPYLR7 agonist	NPYLR7 agonist max-min
1	CCOC(=O)c1nn(-c2ccccc2)c(=O)cc1N1CCN(C(=O)c2ccco2)CC1	7	1
2	O=C(CN(c1ccccc1)S(=O)(=O)c1ccc(Cl)c(Cl)c1)OCC(=O)c1ccccc1	4	6
3	COCCN(Cc1nccn1Cc1c(F)cccc1Cl)C(=O)C1CCCC1	14	10
4	CCN(CC)C(=O)Oc1ccc2c(ccn2Cc2cccc(C)c2F)c1-c1ccc(F)cc1	13	9
5	CC(=O)N1CCN(C(=O)CCC(=O)O)CC1	3	0
6	COc1cc(OC)c(CN2CCCC(Cn3ccnc3C)C2)c(OC)c1 (stereo unspecified)	-2	-12
7	CCN(C(=O)Cc1ccccc1Cl)C(C)CS(=O)(=O)CC (stereo unspecified)	5	3
8	CN(C)C(=O)CNC(=O)CSc1nc2sc3c(c2c(=O)[nH]1)CCCC3	0	3
9	Cc1ccc(C2=NN(C(=O)C(C)C)C(c3ccc4nccnc4c3)C2)cc1 (stereo unspecified)	-6	-10
10	NS(=O)(=O)c1ccc(CNc2cnc3ccccc3n2)cc1	9	7
11	Cc1cc(C(F)(F)F)nc(CCNC(C)Cn2ccnc2)n1 (stereo unspecified)	17	13
12	Cn1cc(C(=O)N2CCCCCC2)cc(NC(=O)c2cc(Cl)ccc2Cl)c1=O	-15	-20
13	CNC(=O)[C@@H]1C[C@H]2CN(c3ccccc3)C(=O)c3cccc(c32)N1C(=O)COC(C)=O	2	6
14	CN(C)CC(NS(=O)(=O)c1ccc2c(c1)CCC2)c1ccccc1 (stereo unspecified)	15	11
15	C[C@@]12CC(=O)C3=C(CCCC3=O)N1CCc1ccccc12	6	3
16	Cc1ccc(NC(=O)CCn2cnc(-c3ccccc3)c2C2CCOC2)c(C)c1 (stereo unspecified)	-2	-3
17	CCc1c(C)sc(NC(=O)C2C3C=CC(C3)C2C(=O)O)c1C(=O)OC(C)C (stereo unspecified)	-3	-5
18	Cc1ccc(-c2n[nH]c(=O)c3c2CCCC3)cc1	-8	-12
19	CCCOc1c(Br)cc(CO)cc1OC	-1	-3
20	CN(C(=O)Cn1nc(-c2cccs2)c2sc(N3CCCC3)nc2c1=O)c1ccccc1	-1	-6
21	CCOc1ccc(C2CC(c3ccc(OC)cc3OC)=NN2C(=O)CN2CCOCC2)cc1 (stereo unspecified)	0	2
22	O=C(O)CN1C(=O)/C(=C\c2cccc([N+](=O)[O-])c2O)SC1=S	5	5
23	Cc1[nH]n(-c2nc(-c3cccc([N+](=O)[O-])c3)cs2)c(=O)c1N=Nc1cccc(Cl)c1	-7	-12
24	OCc1ccccc1-c1nccc2occc12	0	0
25	COC(=O)c1ccc2oc(=O)n(C3CCN(C(=O)c4cc(C)nc(Cl)c4)CC3)c2c1	8	6
26	c1cncc(COC2CCCN(Cc3nc(-c4ccc5c(c4)OCO5)no3)C2)c1 (stereo unspecified)	13&-2	12&-4
27	Cc1oc(-c2cc3c(cc2Cl)OCO3)nc1CN(C)Cc1nc(-c2cccnc2)no1	23	8
28	COc1cc2c(Nc3ccc(Br)cc3F)ncnc2cc1OCC1CCN(C)CC1	-6	-12
29	CC(NC(=O)CCNC(=O)c1ccccc1F)c1ncn[nH]1 (stereo unspecified)	12	19
30	Cc1ccc(C)c(Oc2cc(-n3ncc(Cl)c(Cl)c3=O)nc(C)n2)c1	0	5
31	O=C(OCn1nnc2ccccc2c1=O)c1cc(=O)c2ccccc2o1	1&0	1&-2
32	CCCn1c(O)c(C=Nc2ccc(C)cc2)c(=O)[nH]c1=S	-4	-8
33	CCNC(=O)NCCC1CN(C2CCCCCC2)CCO1 (stereo unspecified)	5	3
34	Nc1ccc(S(=O)(=O)c2ccc(Br)cc2)cc1	2	1
35	O=[N+]([O-])c1ccc(-c2cn3cc(-c4cccc(C(F)(F)F)c4)ccc3n2)cc1	13	1
36	Cc1ccc(C2(O)CCN(C(=O)NCCc3ccc(F)cc3)CC2)nc1	15	14
37	CC1Oc2ccc(C#N)cc2N(Cc2cccc(C(F)(F)F)c2)C1=O (stereo unspecified)	9	4
38	CCOc1ccc(C(=O)N2CCN(Cc3ccccc3)CC2)cc1OCC	-8	-12
39	C[C@@H]1CCC[C@H](C)N1CC(=O)N1Cc2cnc(-c3ccccc3)nc2C1	10	5
40	CC1CCCN(c2cc(C(=O)N3CCCC3)c3ccccc3n2)C1 (stereo unspecified)	14	11
41	COc1ccc(CCNC(=O)CN2CN(c3ccccc3)C3(CCN(S(=O)(=O)c4c(C)cc(C)cc4C)CC3)C2=O)cc1OC	18	13
42	COc1ccc(OC)c(NC(=O)C2(C)CCN2C(=O)c2ccccc2CCc2ccccc2)c1 (stereo unspecified)	9	8
43	CCc1cccc(N2C=C(C(=O)N3CCCC3)S(=O)(=O)c3ccccc32)c1	15	9
44	COc1cc2c(cc1OC)C(C(C)C)N(C(=O)c1ccc(Cl)c(Cl)c1)CC2 (stereo unspecified)	13	5
45	CN1CCN(CC(=O)NC2CCCc3ccccc32)C(C)(C)C1=O (stereo unspecified)	-3	-4
46	COCCNC(=O)c1ccccc1NC(=O)c1ccccc1N(C)S(C)(=O)=O	5	11
47	Clc1ccc(Cl)c(SCCSc2ncn[nH]2)c1	-2	2
48	c1ccc(OCCn2cnnn2)cc1	-2	-4
49	CC(Cn1cncn1)C(=O)N1CCc2onc(-c3cccc(F)c3)c2C1 (stereo unspecified)	14	11
50	O=C(Nc1ccn[nH]1)c1ccc(S(=O)(=O)Cc2ccccc2)cc1	-1	26

# Additional entries.
entry	SMILES	NPYLR7 agonist	NPYLR7 agonist max-min
51	CC(C)C(NC(=O)c1ccco1)C(=O)NC1CCC(=O)N(C)C1 (stereo unspecified)	9	6
52	C=CCn1ncc(CN2CCC3(CC2)CCN(C(=O)c2ccno2)CC3)c1C	23	7
53	COc1ccc(CCNC(=O)c2cccnc2N2CCN(C(=O)c3ccc(-c4ccc(F)c(F)c4)s3)CC2)cc1OC	15	14
54	COc1cc(CN2CCC3(CC2)NC(=O)c2c(Cl)cccc2N3)cc(OC)c1	1	13
55	CCc1ccccc1NC(=O)N(Cc1ccc(OS(=O)(=O)c2ccc(F)cc2)cc1)C(C)C	-1	-12
56	COc1ccc(C2=NOC(c3ccc(C)cc3)C2)cc1 (stereo unspecified)	-4	-7
57	Cc1n[nH]c(C)c1CCCN(C)C(=O)c1cccs1	-5	-6
58	O=C(COc1ccc(Cl)cc1Cl)Nc1ccc(S(=O)(=O)N2CCCC2)cc1	-1	-1
59	O=C(NCc1ccc(Cl)s1)c1ccc(Br)o1	-3	-3
60	CC(C)(NCc1cnc2cnccn12)c1ccc2c(c1)OCO2	1	1
61	O=C(N1CCC(n2cnc3cc(C(F)(F)F)ccc32)CC1)C1(c2ccccc2)CC1	3	-1
62	COc1ccc(CCOc2nc(-c3ccc(C(F)(F)F)cc3)n(-c3cccc(NC(=O)CC(C)C)c3)n2)cc1	3	14
63	Cc1ccc(N2C(=O)CSC2c2ccc3c(c2)OCO3)cc1F (stereo unspecified)	-4	-9
64	C=CCNc1ccccc1C(=O)NCc1cn2ccsc2n1	0	-1
65	OCC#Cc1ccc(CN2CC[C@@H](N3CCN(c4ccccc4F)CC3)[C@H](O)C2)s1	6	4
66	Clc1cccc(Cl)c1SCc1csc(Cc2ccc3c(c2)OCO3)n1	-1	-6
67	Cc1ccc(NC(=O)CC(=O)NCCc2cnc[nH]2)cc1Cl	1	1
68	Cc1ccc(-c2nn(CN3CCN(C4CCS(=O)(=O)C4)CC3)c(=S)n2-c2ccc(C)cc2)cc1 (stereo unspecified)	-8	-8
69	Cc1nc2ccccc2nc1CN1CCCC(C(=O)Nc2ccc(-n3ccnc3C)cc2)C1 (stereo unspecified)	-5&4	-11&0
70	Cc1cccc2nc(CN(C)Cc3ccc(Cl)cc3)cc(=O)n12	-4	-4

# Record cards, as listed above:
# COc1ccc(CCOc2nc(-c3ccc(C(F)(F)F)cc3)n(-c3cccc(NC(=O)CC(C)C)c3)n2)cc1 is listed as NPYLR7 agonist = 3; NPYLR7 agonist max-min = 14
# C=CCNc1ccccc1C(=O)NCc1cn2ccsc2n1 is listed as NPYLR7 agonist = 0; NPYLR7 agonist max-min = -1
# Clc1cccc(Cl)c1SCc1csc(Cc2ccc3c(c2)OCO3)n1 is listed as NPYLR7 agonist = -1; NPYLR7 agonist max-min = -6

# Further records:
entry	SMILES	NPYLR7 agonist	NPYLR7 agonist max-min
71	COCCOC(=O)c1c(NC(=O)CSc2nnc(N)s2)sc(C(N)=O)c1C	4	2
72	CN(C)c1ccc(C2NN(Cc3ccccc3)C3C(=O)N(C4CCCCC4)C(=O)C23)cc1 (stereo unspecified)	-9	-13
73	CC1CCCCC1NC(=O)CSc1nnc(NCc2ccccc2)s1 (stereo unspecified)	0	-1
74	CCc1nnc(CNC(c2ncccc2C)C(C)C)o1 (stereo unspecified)	6	4
75	COc1ccc(-c2cc(C(=O)NCCc3ccccc3)n3nc(C(C)(C)C)cc3n2)cc1	9	13
76	O=C1/C(=C/c2cc3cc(Br)ccc3o2)Oc2c1ccc(O)c2CN1CCN(CCO)CC1	72*	59*
77	c1ccc(-c2ccc(CN3CCCC3)cn2)c(CN2CCOCC2)c1	1	-1
78	COc1ccc(C2c3cccn3CCCN2Cc2cccc(Cl)c2)cc1 (stereo unspecified)	23	14
79	CCCc1cnc2c(c1SC1CCCC1)c(=O)n(C)c(=O)n2C	12	13
80	NS(=O)(=O)c1ccc(CNC2CC(=O)N(CCc3ccccc3)C2=O)cc1 (stereo unspecified)	-2	-9
81	CCc1cccc(NC(=O)N2CCSC2c2cccc(OCc3ccccc3)c2)c1 (stereo unspecified)	17	19
82	COc1ccc2nc(-c3ccc(OC)c(NS(=O)(=O)c4cccs4)c3)cn2n1	-3	-10
83	COc1ccc(/C=N\NC2=NS(=O)(=O)c3ccccc32)cc1Br	20	18
84	CCC(=O)Nc1c(-c2ccc(F)cc2)nc2ccccn12	21	24
85	Cc1ccc(NC(=O)CSc2ccc3nnc(CCNC(=O)c4ccccc4)n3n2)cc1Cl	5	-4
86	Fc1ccc(-c2[nH]ncc2CN2CCC(c3ccccc3F)C2)c(F)c1 (stereo unspecified)	5	4
87	Cn1ncc2c(N3CCC(O)(c4ccccc4)C3)nc(-c3cccnc3)nc21 (stereo unspecified)	3	4
88	COCCCNC(=O)C(NC(=O)c1cccc(C)c1)C1CCN(C(=O)COC)CC1 (stereo unspecified)	-3	3
89	COc1cccc(CN(Cc2nc(C(=O)NC3CC3)co2)C(C)c2ccccc2)c1OC (stereo unspecified)	13	16
90	Cc1sc2nc(C(C)OC(=O)C3=NNC(=O)CC3)[nH]c(=O)c2c1C (stereo unspecified)	3	1
91	O=C(NCCOc1ccc(-c2ccccc2)nn1)c1ccc(Br)o1	-6	-5
92	Cc1c(-c2ccccc2)sc(NC(=O)CCC(C)C)c1C(=O)N1CCOCC1	12	7

# Pulled by structure from the list above, six records:
entry	SMILES	NPYLR7 agonist	NPYLR7 agonist max-min
77	c1ccc(-c2ccc(CN3CCCC3)cn2)c(CN2CCOCC2)c1	1	-1
3	COCCN(Cc1nccn1Cc1c(F)cccc1Cl)C(=O)C1CCCC1	14	10
49	CC(Cn1cncn1)C(=O)N1CCc2onc(-c3cccc(F)c3)c2C1 (stereo unspecified)	14	11
53	COc1ccc(CCNC(=O)c2cccnc2N2CCN(C(=O)c3ccc(-c4ccc(F)c(F)c4)s3)CC2)cc1OC	15	14
65	OCC#Cc1ccc(CN2CC[C@@H](N3CCN(c4ccccc4F)CC3)[C@H](O)C2)s1	6	4
40	CC1CCCN(c2cc(C(=O)N3CCCC3)c3ccccc3n2)C1 (stereo unspecified)	14	11

# A portion of the library; count on the stated rates, not on these rows.
